# Autofluor counter: compound fluorescence in toxin protease inhibitor counterscreen | compound autofluorescence counterscreen, microsphere flow cytometry; hits give high values | fluorescence intensity (no concentration beside the values) | hit rate 3.1% among 360,000;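 active = at least 3 SD above the mean of all compounds, about 16000 in these data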;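 also: 100 nL of 1 mM stock went into each well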
# BJeLR lethal: BJeLR cell viability loss; hit rate 0.17% among 300,000; BJeLR (HRASV12) viability, CellTiter-Glo ATP luminescence, 48 h; reference of the scale not given here; inhibition, % (concentration not given with the values);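 active = replicate mean above 50%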;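 also: 50 nL library stock added to about 25 µL; numbers are from one replicate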
# Mtb hypoxia rep: inhibitors of hypoxia-regulated fluorescent reporter in Mycobacterium tuberculosis. M. tuberculosis hypoxia-regulated fluorescent reporter, fluorescence. fluorescence inhibition, % (no concentration beside the values). hit rate 0.1% among 300,000. AID 1159583;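 active = 35 to 45% if threefold the growth effect, above 45% if 1.5-fold the growth effect; inactive = the rest, general growth blockers included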;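 also: wells of about 50 µL received 100 nL stock; 0% = vehicle wells and 100% = reference inhibitor wells; whole bacteria with a GFP reporter of the hypoxia response; strong numbers were not always called active; many hits fall short of the cut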
# RN4220 kill: S. aureus RN4220 growth inhibition; OD600, 16 h; inhibition, % (concentration not given with the values); hit rate 0.33% among 330,000; AID 1259311;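 active = z-score of -3 or lower and OD600 up to 0.18 on both plates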;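 also: plate controls were untreated cells for no effect and reference antibiotic for full effect; stock transfer was 100 nL into about 80 µL; one replicate is shown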
# Sa ugtP lethal: compounds lethal to S. aureus RN4220 ugtP deletion mutant | OD600 growth, 16 h; some inactives read as strong as hits | growth inhibition, % (concentration not given with the values) | hit rate 0.54% among 330,000 | AID 1259309;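 active = z-score under -3 and OD600 up to 0.15 on both plates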;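 also: plate controls were untreated wells for no effect and antibiotic for full effect; wells of about 80 µL received 100 nL stock; the first replicate is given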
# PrP UTR inh: inhibition of PrP 5' UTR reporter expression; hit rate 0.35% among 340,000; AID 488862; cell-based PrP 5' UTR mRNA reporter, plate reader; inhibition, % (no concentration beside the values);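 active = every replicate at 50% or more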;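 also: 0 = median of the neutral control wells; tested in H4 reporter cells; numbers are from one replicate; inactives centre near -14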
# Mtb hypoxia rep growth: second read-out of Mtb hypoxia rep, no call of its own (marks repeat the call); growth inhibition, %; measured here: M. tuberculosis growth (absorbance);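 0% = vehicle and 100% = reference antibiotic; read after six days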
# An asterisk follows results filed as active; . = not tested or not shown; & = joins results of further samples.
SMILES,Autofluor counter,BJeLR lethal,Mtb hypoxia rep,Mtb hypoxia rep growth,RN4220 kill,Sa ugtP lethal,PrP UTR inh
CCCCCCN[C@H]1CCC2C3CC=C4C[C@@H](O)CC[C@]4(C)C3CC[C@@]21C (stereo not given in full),4012,.,-20,9,0.7,-4,-12
CCOC(=O)Cc1csc(NC(=O)CSc2nnc(-c3ccc(NS(=O)(=O)CC)cc3)o2)n1,21681*,0,14,15,12,-26,6
Cc1ccc(S(=O)(=O)c2cc3c(=O)n4ccccc4nc3n(Cc3ccco3)c2=N)cc1C,.,-3,.,.,0.1,-6,.
COc1ccc(-c2nnc(SCC(=O)NC(C)c3ccccc3)o2)cc1OC (stereo not given),2730,-4,11,5,6.3,-1,-27
CS(=O)(=O)c1ccc(C(=O)NCc2ccc(F)cc2)cc1,3902,8,11,2,3.8,5,-36
O=C(c1ccccc1C(=O)N1CCN(c2ccccc2)CC1)N1CCN(c2ccccc2)CC1,8242,2,0,11,1.5,-4,-3
Cc1ccc(S(=O)(=O)N2CCCC(CCC(=O)NCc3ccccc3F)C2)s1 (stereo not given),4129,4,-1,1,-0.5,2,-27
CCN1CCC(NC(=O)Nc2ccccc2C(=O)OC)CC1,1996,0,-4,1,4.8,4,-23
Cc1cc(C)n(-c2ncc(C#N)cn2)n1,4485,5,-2,10,-1.3,-5,-18
COc1ccccc1C=NNC(=O)Cn1cnc([N+](=O)[O-])n1,.,.,-1,7,-4.3,-10,.
O=C(N1CCOCCOc2ccccc2OCCOCC1)C(F)(F)F,3031,-4,8,11,4.1,6,-6
COc1ccccc1/C=N\NC(=O)c1ccc(COc2ccc(C)c(C)c2)o1,4632,-5,.,.,.,.,4
COc1ccc(NC(=O)CS(=O)CC(=O)N2CCN(C3CCCC3)CC2)cc1 (stereo not given),2997,-6,-7,-8,5.6,2,-2
CCc1cc2cccc(C)c2nc1SCC(=O)c1ccc(NC(C)=O)cc1,4392,-7,10,7,-6.0,-14,0
Cn1c(SCC2CCCO2)nnc1-c1ccncc1 (stereo not given),11078,-19,6,0,1.5,-1,-26
Cc1cc(NC(=O)COC(=O)c2ccc([N+](=O)[O-])cc2Cl)no1,4619,.,5,3,-1.5,-3,-4
CCOC(=O)N1CCC(N2CCCC(C(=O)c3cc(C)c(OC)c(C)c3)C2)CC1 (stereo not given),2593,9,13,6,4.0,2,-1
CCOc1cc(C(=O)Nc2ccccc2F)cc(Br)c1OCC,2529,-3,3,-2,0.6,24,-22
O=[N+]([O-])c1cc(Cl)ccc1Oc1ccc(-c2nnco2)cc1,3277,7,-5,8,8.3,4,45
O=C(Nc1ccc(Cl)c(Cl)c1)Nc1nccs1,4640,46,.,.,.,.,-53
Cc1ccc(S(=O)(=O)N(C)C)cc1NC(=O)c1c(-c2c(F)cccc2Cl)noc1C,5659,8,3,2,2.2,2,-26
Clc1ccccc1C=NN1CCN(Cc2ccccc2)CC1,.,.,4,2,4.7,12,.
COc1ccc2cc(/C=N/O)c(Cl)nc2c1,3196,1,.,.,.,.,-20
COc1ccccc1NS(=O)(=O)c1ccc(Cl)c(NC(=O)c2sc3cc(Cl)ccc3c2Cl)c1,4461,1,1,3,0.8,3,-26
CCN(CC)c1ccc(NS(=O)(=O)c2ccc(OC)cc2)cc1,4846,6,4,0,1.2,3,-18
CCCn1c(SCC(=O)Nc2c(C)cccc2CC)nnc1C(C)C,4513,-2,5,3,-2.2,5,-4
Cc1cc(OCCN2CCOCC2)ccc1Cl,3418,8,8,2,4.8,14,-27
CCCNC(=O)NC(=O)CSc1nc(C)cs1,4538,10,-7,-8,3.6,2,-20
O=C(Nc1cccc(C(F)(F)F)c1)c1ccccc1NC(=O)C1CCCCC1,2507,1,-4,-8,8.7,2,-17
CC(=O)Nc1ccc(C(=O)NN=Cc2ccccc2OC(=O)c2ccc(Cl)cc2)cc1,.,.,15,3,3.6,-5,.
O=C1CSC(c2cccnc2)N1c1ccc(Cl)cc1 (stereo not given),5067,12,0,5,1.0,1,-11
COc1ccc(CN2CCNC(=O)C2CC(=O)NC2CCCCCCC2)cc1OC (stereo not given),6464,6,1,1,-2.4,-4,-5
CN(CC(=O)Nc1ccc(OC(F)(F)F)cc1)S(=O)(=O)c1cnc[nH]1,5986,9,0,1,-0.3,-6,-21
CC(=O)CN1Cc2ccccc2/C1=N\C(=O)Nc1ccccc1,10328,-5,.,.,.,.,-49
Cc1ccc2cccc(N=Cc3c(C)[nH]n(-c4ccccc4)c3=O)c2n1,10615,10,1,6,-6.5,-9,-23
O=C(Nc1ccc(S(=O)(=O)N2CCCCC2)cc1)c1ccccc1F,3976,-1,1,2,0.3,-5,-22
C#CCOCCOCCOCCNc1nc(N2CCN(C(=O)[C@H](CCCCN)n3cc(CN)nn3)CC2)nc(N2CCN(C(=O)[C@H](CCC(=O)O)n3cc([C@@H](N)CCSC)nn3)CC2)n1,3954,.,-1,-1,-0.8,1,-11
COC(=O)c1ccc(C23CC4(C2)C(CN(CC2CCCCC2)C4c2ccccc2)C3c2ccc(C(F)(F)F)cc2)cc1 (stereo not given),.,.,0,-4,-3.8,-2,.
Cc1ccsc1CN1CC(=O)N(c2c(C)cccc2C)C1=S,4193,-4,14,5,6.2,8,0
O=C(NC(=S)N(Cc1ccccc1)Cc1ccccc1)C1CCCCC1,3172,-10,.,.,-1.3,-3,-11
O=C(Nc1ccc2c(c1)CCCN2C(=O)c1cccs1)c1ccccc1,4194,7,6,7,1.9,0,-17
Cc1onc(-c2ccccc2Cl)c1C(=O)Nc1ccc(S(=O)(=O)N2CCCC2)cc1,4440,9,.,.,6.1,6,-29
O=C(Nc1nc2cc3c(cc2s1)OCCO3)c1cccc(N2C(=O)CCC2=O)c1,6357,-11,6,10,-1.6,-1,-6
COC1=C/C(=C/c2c(N)n3nc(-c4ccc(C)cc4)sc3nc2=O)C=CC1=O,5079,.,17,7,1.6,13,-44
Cc1ccc(C(=O)OCc2nc3ccsc3c(=O)[nH]2)o1,4387,-1,1,-7,4.5,5,-19
COc1ccc(Nc2nnc(-c3ccc(C(=O)NCCO)cc3)c3ccccc23)cc1,3431,-2,0,-1,1.6,7,-1
CCc1nnc(NC(=O)CSc2nc3c(c(=O)n2CC)SC(C)C3)s1 (stereo not given),5508,8,2,-3,1.1,-2,-66
O=C(N/N=C/c1ccco1)c1cc(-c2ccccc2)nc2ccccc12,4510,0,.,.,.,.,-28
COc1ccc2[nH]c(C)c(CN3CCC(C)CC3)c(=O)c2c1,13179,3,2,2,7.3,3,-25
O=C(NCc1ccccn1)C1CCN(C(=O)c2cc3sccc3n2Cc2ccc(F)cc2)CC1,2566,4,-1,6,1.6,12,-5
COC(=O)NNC(=O)Cc1cccc2ccccc12,2145,-7,-1,-1,-2.3,-1,-15
COc1ccccc1-n1c(Cc2cccs2)n[nH]c1=S,3630,-5,4,2,0.4,8,-50
O=C(NCCc1ccccc1Cl)c1ccc2nc3ccccc3c(=O)n2c1,3162,-2,3,3,-2.0,25,-10
CCOC(=O)CCCn1nc(C)n2c(cc3sccc32)c1=O,3330,1,-2,1,5.2,-4,-5
COc1ccc(OC)c(CNC(=O)CCn2c(=O)c3cccn3c3ccc(F)cc32)c1,5767,5,13,-1,2.9,5,-7
Cc1ccc(S(=O)(=O)NC(Cc2ccccc2)C(=O)O)cc1 (stereo not given),4352,-1,18,1,3.4,8,-16
Oc1ccc(C=Nn2c(-c3ccccc3)n[nH]c2=S)cc1Br,.,.,1,4,8.4,-7,.
Cc1nnc(C)n1N=Cc1c(O)ccc2ccccc12,.,.,17,10,7.1,13,.
CC1CC(C)CN(Cc2nc(N)nc(Nc3ccc4ccccc4c3)n2)C1 (stereo not given),4632,3,9,14,-0.3,-10,-18
COC(=O)c1cc(OC)c(OC)cc1NC(=S)N1CCN(C)CC1,10029,6,21,5,3.3,9,-9

# Arranged by formula weight (rising): 6 of the compounds above.
SMILES,Autofluor counter,BJeLR lethal,Mtb hypoxia rep,Mtb hypoxia rep growth,RN4220 kill,Sa ugtP lethal,PrP UTR inh
COC(=O)NNC(=O)Cc1cccc2ccccc12,2145,-7,-1,-1,-2.3,-1,-15
COc1ccc2[nH]c(C)c(CN3CCC(C)CC3)c(=O)c2c1,13179,3,2,2,7.3,3,-25
COc1ccccc1-n1c(Cc2cccs2)n[nH]c1=S,3630,-5,4,2,0.4,8,-50
O=C(NCCc1ccccc1Cl)c1ccc2nc3ccccc3c(=O)n2c1,3162,-2,3,3,-2.0,25,-10
COc1ccc(Nc2nnc(-c3ccc(C(=O)NCCO)cc3)c3ccccc23)cc1,3431,-2,0,-1,1.6,7,-1
COc1ccc(OC)c(CNC(=O)CCn2c(=O)c3cccn3c3ccc(F)cc32)c1,5767,5,13,-1,2.9,5,-7

# Later entries
SMILES,Autofluor counter,BJeLR lethal,Mtb hypoxia rep,Mtb hypoxia rep growth,RN4220 kill,Sa ugtP lethal,PrP UTR inh
COc1ccc(NC(=O)C2CCCN(S(=O)(=O)c3cccnc3)C2)cc1 (stereo not given),4857,4,.,.,0.8,5,-23
O=C(CSc1cccc[n+]1[O-])Nc1cccc(Oc2ccccc2)c1,3999,-9,-6,-3,8.9,4,-19
Cc1ccc(NC(=O)NCCCN2CCCC2=O)cc1Cl,6285,8,14,0,2.1,-1,-21
COc1ccc(CCNS(=O)(=O)c2ccc(F)cc2)cc1OC,7328,4,17,6,-1.1,1,-9
CC(NC(=S)NC1CCCCC1)C(c1ccccc1)N1CCOCC1 (stereo not given),3353,8,-9,7,2.0,4,-15
COc1ccc(/C=C/C(=O)N2CCN(C)CC2)cc1OC,3611,-5,1,6,2.8,3,-23
CC(=O)Nc1cccc(NC(=O)C(=O)Nc2ccc3c(c2)N(C(=O)C2CC2)CCC3)c1,5690,14,4,8,-5.5,9,-53
O=C(O)Cn1c2ccccc2c2ccccc21,4624,5,2,7,3.0,0,-24
Cc1ccc(C2(CC(=O)Nc3nccs3)CCOC(C(C)C)C2)cc1 (stereo not given),2435,7,8,6,4.6,-3,-35
COC(=O)c1ccc(C2/C(=C(/O)c3ccc(OC)cc3)C(=O)C(=O)N2Cc2ccco2)cc1 (stereo not given),8659,3,13,8,4.1,-4,-11
Nc1nc(SCc2ccc([N+](=O)[O-])cc2)nc2nc3c(cc12)CCCC3,7659,-2,.,.,.,.,-2
O=C(CNc1cccc(C(F)(F)F)c1)N/N=C/c1ccccc1C(=O)O,6500,-4,.,.,.,.,-3
CCOC(=O)C1(Cc2ccc(OC)cc2)CCN(C(=O)c2cc(C)nn2C)CC1,3953,8,-9,-6,6.7,11,-17
COc1cc(C=NNc2ccc(F)cc2F)cc(OC)c1OC,.,.,-8,8,-3.3,-6,.
Cc1ccc(Cl)cc1-c1ccc(/C=N/n2cnnc2)o1,1944,-7,.,.,.,.,-13
COc1ccccc1CNCc1cccc(Oc2ccccc2)c1,3955,1,1,2,4.5,4,-29
CC(C)Cc1nc(NCCN2CCOCC2)c(C#N)c2c1COC(C)(C)C2,3441,-8,17,15,-13,-9,1
CCN(CC)C(=O)CSC1=C(C#N)C(c2ccco2)C(C(=O)OCCOC)=C(C)N1 (stereo not given),3520&1981,3,3&5,2&0,1.6&2.0,-3&1,-18&-9
CCOC(=O)NC1Cc2ccccc2C1Sc1ccccn1 (stereo not given),4143,2,14,8,1.3,9,-16
CC1CCCN(C(=O)C2CCN(S(=O)(=O)c3cccc4nonc34)CC2)C1 (stereo not given),3672,-3,11,9,3.6,3,-9
COc1cc(C(=O)N=C2SC3CS(=O)(=O)CC3N2c2ccccc2)cc(OC)c1OC (stereo not given),5874,0,9,-3,4.0,1,1
Cc1ccc(CSc2nc(N)cc(=O)[nH]2)cc1,3869,-5,16,-8,2.1,2,-13
Cc1cccn2c(=S)[nH]nc12,3520,.,13,5,6.3,1,-7
CC1CN(C(=O)CCC(=O)NCCc2ccccc2)c2ccccc2O1 (stereo not given),5833,-13,-2,-5,-0.4,-3,1
C/C(=N/N1CCN(Cc2ccccc2)CC1)c1ccc(Br)cc1,3202,7,.,.,.,.,2
O=[N+]([O-])c1ccc(Cl)c(NC2=NCCCCC2)c1,5812,0,.,.,.,.,-6
CCCCOC(=O)Nc1ccccc1C(=O)N1CCCC1,3274,4,3,0,2.3,-2,-11
COc1cc2c(cc1NC(=O)c1cc(-c3ccncc3)nc3ccc(C)cc13)oc1ccccc12,10288,2,3,-2,-2.9,-22,.

# Bioassay records: PubChem BioAssay, several laboratories
